Compound activity as filed in PubChem BioAssay.
UCH37 inh – inhibitors of human UCH37 deubiquitinase, primary screen, biochemical, Ub-AMC cleavage, fluorescence; Ubiquitin carboxyl-terminal hydrolase isozyme L5 (Homo sapiens), Q9Y5K5; purified proteasome/UCH37; inhibition, % (test concentration not listed); 0.33% of 330,000 active; AID 588478, 2011;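 active = mean of two replicates above 20%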;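 also: 0% = compound-free wells with enzyme and 100% = wells lacking proteasome; stock transfer was 100 nL into about 20 µL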
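Reagent: Ub-AMC substrate; assay system: Proteasome-associated human UCH37 deubiquitinase; controls: no-proteasome and no-compound wells; read-out: % inhibition of Ub-AMC cleavage fluorescence; timing: 30 min preincubation with enzyme, 25 min cleavage at room temperature; signal: AMC fluorescence from Ub-AMC cleavage, excitation 355 nm, emission 460 nm; buffer or medium: Tris-HCl pH 7.4 plus ovalbumin, ATP-MgCl2, DTT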
RanGTP-Impb inh – inhibitors of RanGTP-importin-beta interaction, primary screen, biochemical, FRET, CFP-Ran, YFP-importin-beta, homogeneous; cell-free CFP-Ran/YFP-importin-beta FRET ratio; inhibition, % (no concentration beside the values); 1.1% of 300,000 active;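 active = most replicates above 15%; inconclusive = exactly half above 15%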;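 also: 0% = DMSO wells and 100% = Ran loaded with GDP instead of GTP; wells of about 40 µL received 100 nL stock; the first replicate is given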
A1 inh – caspase 3/7 activation in MEF A1-2A-BIM cells, primary screen, A1 inhibitor project, cell-based, luminescence, HTS; caspase activation, % (concentration not given with the values); AID 2462, 2010; Caspase-Glo 3/7 luminescence, 3 h; percent of clofoctol response, vehicle zero; 0.066% of 330,000 active;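 active = over half of replicate activation scores above 10%, or exactly half above 10 with the replicate mean above 10; inconclusive = replicate mean below 10 yet half the replicates above 10; inactive = over half of replicates below 10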;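 also: wells of about 30 µL received 50 nL stock; many hits fall short of the cut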
LANA-H2A inh – blockers of LANA interaction with H2A/H2B – biochemical, FP readout, HTS, primary screen; Protein LANA1 (Human herpesvirus 8 type P (isolate GK18)), Q9QR71; cell-free LANA-H2A/H2B peptide, fluorescence polarization; inhibition, % (concentration not given with the values); 0.6% of 320,000 active; in the data active = inhibition mostly above about 10%, no sharp cut-off; inactive = mostly below about 6.7%;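 also: stock transfer was 7.5 nL into about 10 µL; 0% = median of vehicle wells and 100% = median of positive control wells; one replicate is shown; the record names a cut of 25% in any replicate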
Target sequence (Q9QR71 whole entry, looked up): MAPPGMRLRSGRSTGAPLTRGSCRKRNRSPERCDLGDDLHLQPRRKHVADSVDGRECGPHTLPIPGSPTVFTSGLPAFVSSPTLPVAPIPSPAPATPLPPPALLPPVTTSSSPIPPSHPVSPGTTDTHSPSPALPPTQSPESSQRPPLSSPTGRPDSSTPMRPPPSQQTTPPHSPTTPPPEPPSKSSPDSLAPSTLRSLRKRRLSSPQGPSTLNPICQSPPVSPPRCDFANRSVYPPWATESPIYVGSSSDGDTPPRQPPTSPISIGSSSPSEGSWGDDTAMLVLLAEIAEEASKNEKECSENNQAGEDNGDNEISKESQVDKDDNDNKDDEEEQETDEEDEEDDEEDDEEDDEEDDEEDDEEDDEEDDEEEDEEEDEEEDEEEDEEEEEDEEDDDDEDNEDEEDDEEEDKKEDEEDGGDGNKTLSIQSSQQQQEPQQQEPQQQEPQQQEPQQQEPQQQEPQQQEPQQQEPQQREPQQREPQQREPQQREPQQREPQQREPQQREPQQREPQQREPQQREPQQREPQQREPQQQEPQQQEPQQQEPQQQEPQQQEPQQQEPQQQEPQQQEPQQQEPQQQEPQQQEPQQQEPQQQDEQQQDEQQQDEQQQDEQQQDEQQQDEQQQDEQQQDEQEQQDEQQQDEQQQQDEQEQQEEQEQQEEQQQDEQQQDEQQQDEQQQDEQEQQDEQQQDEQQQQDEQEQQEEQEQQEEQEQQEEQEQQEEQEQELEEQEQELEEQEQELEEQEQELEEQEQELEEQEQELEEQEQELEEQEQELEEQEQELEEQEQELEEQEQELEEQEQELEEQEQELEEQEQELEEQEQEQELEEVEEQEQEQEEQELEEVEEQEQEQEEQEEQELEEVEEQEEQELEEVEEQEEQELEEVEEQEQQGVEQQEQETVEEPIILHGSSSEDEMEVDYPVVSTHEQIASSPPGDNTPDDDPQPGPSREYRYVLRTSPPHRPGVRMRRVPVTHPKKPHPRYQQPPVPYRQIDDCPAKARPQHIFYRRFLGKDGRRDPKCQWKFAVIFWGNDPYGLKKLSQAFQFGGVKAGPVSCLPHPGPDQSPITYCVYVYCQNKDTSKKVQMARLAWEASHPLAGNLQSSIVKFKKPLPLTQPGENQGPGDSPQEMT
Calb FLC – C. albicans growth inhibition with fluconazole, primary screen, CaCi-2 strain, Alamar Blue fluorescence; growth inhibition, % (test concentration not listed); 0.57% of 300,000 active; C. albicans CaCi-2 (fluconazole-resistant clinical isolate) + fluconazole, 48 h;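 active = most replicates above 75%; inconclusive = exactly half above 75%; inactive = most below 75%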;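 also: all wells also contain fluconazole at 8 µg/ml as a sub-toxic cotreatment; 0% = median of DMSO wells and 100% = median of geldanamycin control wells; wells of about 8 µL received 7.5 nL stock; the first replicate is given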
T cruzi repl – inhibitors of intracellular T. cruzi growth, primary screen, luminescence, NIH3T3 host cells; T. cruzi beta-gal in NIH3T3, 90 h; inhibition, % (concentration not given with the values); 1.4% of 300,000 active; AID 1885, 2009;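 active = mean inhibition across valid replicates above about 55%, limit read from the data; inconclusive = mean below that limit but half or more replicates reach it; inactive = mean below it, under half of replicates reach it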;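 also: signal also drops with host cell toxicity which is not excluded here; 0% = plate median of DMSO wells and 100% = zero luminescence signal; higher percent means less beta-gal luminescence so fewer parasites; stock transfer was 50 nL into about 50 µL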
Beta cell apopt – inhibitors of cytokine-induced beta cell apoptosis, primary screen, luminescence. INS-1E cytokine-induced death, ATP luminescence, 48 h; percent of positive-control rescue, neutral wells zero. protection from apoptosis, % (no concentration beside the values). 0.8% of 300,000 active;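 active = all replicates at 75% or more, or half of them and the mean; inconclusive = half reach 75% but not the mean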;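 also: 0% = cytokine-treated negative control wells and 100% = positive control rescue; higher means more ATP so stronger rescue from cytokine killing; wells of about 40 µL received 100 nL stock; the first replicate is given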
Beta2AR agonist – beta2AR agonists driving receptor internalization, primary screen, cell-based, FAP fluorogen, flow cytometry; Beta-2 adrenergic receptor (Homo sapiens), P07550; Am2.2-beta2AR cells; reference of the scale not given here; response, % (test concentration not listed); 0.43% of 340,000 active; AID 504454, 2011;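 active = response above a set limit, near 3 SD of response in nonfluorescent compounds, cut at about 42% in these data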;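 also: stock transfer was 100 nL into about 11 µL; a reference agonist was the positive control; negative values mostly stem from fluorescent compounds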
An asterisk follows results filed as active; ? = inconclusive; · = not tested or not shown.

SMILES | UCH37 inh | RanGTP-Impb inh | A1 inh | LANA-H2A inh | Calb FLC | T cruzi repl | Beta cell apopt | Beta2AR agonist
Cc1nn(-c2ccccc2)c(N)c1N=Nc1ccccc1 | 5.8 | 3.0 | 0.9 | 3.7 | -1 | 2 | · | 6
CCC(C)NC(=S)N1CCN(C)CC1 (stereo not given) | 4.4 | 0.5 | -0.1 | -1.0 | 6 | -14 | 1 | ·
CC(C)CN1CCC(=O)N(CCN=[N+]=[N-])CC1 | 1.0 | 2.5 | 0.3 | 0.1 | -9 | -13 | -9 | 2
O=C(CN1C(=O)CSC1=O)c1ccccc1 | 1.6 | 3.7 | -0.6 | -2.0 | 6 | -2 | -3 | 5
O=C(NCCc1c[nH]c2ccccc12)C1CCN(c2nnc(N3CCCC3=O)s2)CC1 | -2.6 | · | -0.5 | -1.9 | · | · | -1 | -16
O=C(CSc1nnc2ccc3ccccc3n12)N1CCOCC1 | 2.2 | -0.2 | -0.7 | 0.1 | -1 | -9 | -3 | -14
CC(C)(C)c1ccccc1OCC(=O)NCCCn1ccnc1 | 3.1 | -1.9 | -0.2 | 1.9 | 2 | 34 | -7 | 3
O=S1(=O)CC2SC(=S)N(c3ccccc3)C2C1 (stereo not given) | 2.6 | -0.8 | 0.3 | 0.2 | -11 | 1 | 1 | -7
COC(=O)c1cccc(CSc2nc3ccccc3[nH]2)c1 | 5.9 | ? | -4.7 | -0.6 | 0 | -12 | 5 | -3
O=c1c2ccccc2nc(SCc2ccccc2)n1CC1CCCO1 (stereo not given) | 0.8 | 3.8 | 0.1 | 0.6 | -11 | 32 | 2 | 1
O=C(O)c1ccc(NC(=O)c2ccco2)c(NC(=O)c2ccco2)c1 | 0.9 | -0.9 | -0.3 | -1.7 | -8 | -8 | -2 | 1
COCCCNc1ccc([N+](=O)[O-])cc1C(=O)Nc1cccc(C)n1 | 2.2 | -0.2 | 1.4 | 3.0 | -15 | 6 | -7 | -4
Cc1ccc(NC(=O)CCn2nnc3ccccc32)cc1 | 0.7 | ? | -0.2 | -1.1 | -5 | -2 | 2 | 5
O=C(c1cc(Cl)ccc1O)N1CCN(S(=O)(=O)c2cccs2)CC1 | 2.5 | -2.0 | -0.7 | 0.9 | 6 | -11 | 0 | -2
COc1ccc(-c2nn(-c3ccccc3)cc2/C=C/C(=O)OCC(=O)Nc2cccc(C#N)c2)cc1 | -440 | ? | -0.4 | -4.1 | 5 | 13 | 2 | 18
Cc1ccccc1-n1nnnc1Sc1nnnn1-c1ccccc1 | 4.0 | · | 0.9 | -0.1 | · | · | 60 | 1
COc1ccc(C/C(C)=N/NC(=O)C2COc3ccccc3O2)cc1 (stereo not given) | · | -2.4 | 0.1 | 2.8 | -5 | -7 | -7 | -2
Cn1c(=O)c2c(nc(NCCNC(=O)c3ccco3)n2Cc2ccccc2F)n(C)c1=O | 4.8 | -0.5 | 0.4 | 0.9 | -2 | -10 | -6 | -7
O=C(NCC1CC1)Nc1cccc(C(F)(F)F)c1 | 3.8 | -1.0 | 0.5 | -3.0 | 0 | -2 | -3 | -6
CC1CCN(C(=O)c2ccc(N3CCOCC3)c([N+](=O)[O-])c2)CC1 | 0.3 | · | 0.9 | -0.6 | · | · | -4 | -3
O=C(O)Cc1sc(-c2cccnc2)nc1-c1ccc(Br)cc1 | -2.0 | ? | -0.3 | 7.0 | 4 | -18 | · | 7
CCN(CC)c1ccc(NC(=O)Cn2cc3c(n2)CCC(C)C3)c(C)c1 (stereo not given) | 2.2 | ? | 0.0 | -4.8 | 0 | -10 | -4 | -3
CCOc1ccccc1-n1nnnc1SCc1nc2ccccc2s1 | -1.5 | 0.8 | -2.2 | 0.3 | -35 | 10 | -6 | -5
COc1ccccc1N1CCN(c2nc3ccccn3c(=O)c2C=O)CC1 | 8.2 | 4.8 | 1.0 | -5.5 | 6 | 5 | 5 | 5
Cn1c(CC(=O)Nc2ccc(Cl)c(Cl)c2)n[nH]c1=S | 2.1 | 0.9 | 0.3 | 1.9 | -7 | -11 | -1 | 11
COC(=O)c1cc(S(=O)(=O)NCc2ccc(F)cc2)cn1C | 3.9 | 1.1 | 0.0 | -6.4 | 3 | -3 | -2 | 4
CC(C)(C)S(=O)(=O)c1cnc(N2CCCC2)nc1N | 3.5 | 2.0 | 0.4 | -5.1 | 0 | -15 | -4 | -7
CCOC(=O)c1nnc(-c2ccc(C)cc2)nc1N1CCSCC1 | 0.9 | -0.8 | 0.0 | 2.8 | -23 | 28 | -11 | -1
O=C(Sc1nnc(-c2ccccc2)o1)N1c2ccccc2Sc2ccccc21 | -0.1 | 1.6 | -0.2 | -0.2 | -6 | 32 | · | -6
Oc1cccc(Nc2ccccc2)c1 | -0.9 | · | 0.1 | 2.3 | · | · | -2 | 2
C/C(=N\NC(=O)c1cccc2ccccc12)c1ccccn1 | · | 4.4 | · | · | -3 | 64* | · | 10
CCc1cc2c(-c3ccccc3)cc(=O)oc2cc1OCC(=O)NCC1CCC(C(=O)O)CC1 (stereo not given) | -2.3 | 0.7 | 0.6 | 0.8 | 0 | -16 | 1 | -5
COc1ccc(C(=O)c2coc(-c3ccccc3C(=O)O)c2C(=O)O)cc1 | 1.3 | 8.7 | 0.6 | -3.7 | -10 | -12 | -1 | 10
CCOCCn1c(N2CCN(c3ccc(OC)cc3)CC2)nc2c1c(=O)n(C)c(=O)n2C | 5.5 | 5.2 | 0.0 | -3.7 | -10 | 7 | 5 | 2
O=C(CC1(O)C(=O)Nc2cc(Cl)cc(Cl)c21)c1ccccc1O (stereo not given) | -0.4 | 4.7 | -0.1 | 0.2 | 5 | 2 | -36 | 2
CN(C(=O)c1ccc(NC(=O)C2CC=CCC2C(=O)O)cc1)c1ccccc1 (stereo not given) | 0.3 | 25* | 0.1 | 1.4 | ? | -19 | -1 | 0
O=C(COC(=O)c1nc(Cl)ccc1Cl)NNC(=O)c1cccs1 | 0.8 | -3.8 | -0.7 | -8.5 | -3 | -11 | -4 | -3
Cc1ccc2c(c1)C(O)(CC(=O)c1cccnc1)C(=O)N2 (stereo not given) | 3.0 | -2.9 | 0.1 | 0.2 | -18 | -15 | -2 | 2
CN(C)CCCNC(=O)C(=O)NCC1OCCN1S(=O)(=O)c1cc(F)ccc1F (stereo not given) | 1.4 | 3.2 | -1.3 | -8.1 | -12 | 25 | 1 | 2
CCOC(=O)/C=C1\SCC(=O)N1CC(=O)NC(c1ccccc1)c1ccccc1 | -1.1 | -3.2 | -0.6 | 1.0 | -25 | 5 | 3 | -6
Cc1c(Cl)cccc1NC(=O)Nc1cc(C(C)(C)C)on1 | 6.1 | 6.4 | 0.1 | -0.8 | 5 | 19 | · | 0
CCn1c(SCC(=O)NC2CCCc3ccccc32)nnc1-c1cccs1 (stereo not given) | 2.3 | 7.1 | 0.9 | 0.9 | 0 | 2 | -4 | -16
Cc1nnc(SCc2cc(=O)[nH]c(=S)[nH]2)s1 | 1.6 | 10 | 0.7 | 3.0 | -6 | 9 | -6 | 1
CCn1nnnc1-c1ccc(OC)c(S(=O)(=O)Nc2ccc(C)c(C)c2)c1 | 2.9 | 2.7 | 0.2 | -3.3 | -21 | -11 | -3 | -3
COc1cccc(C2=NN(C(=O)c3ccc(C)o3)C(O)(C(F)(F)F)C2)c1 (stereo not given) | -0.7 | 2.1 | 1.8 | -2.6 | 5 | 6 | 1 | 5
CC(C)C[C@H](CO)N(Cc1ccccc1)S(=O)(=O)N(Cc1ccccc1)[C@@H](CO)CC(C)C | · | · | 0.8 | 7.3 | · | · | -5 | 25
COc1ccc(-c2cc(C(=O)OCC(=O)NC(C)(C)C)c3ccccc3n2)cc1 | -232 | 7.4 | 0.0 | 1.2 | -10 | 4 | 1 | -7
CCOc1ccc(NC(=O)c2c(NC(=O)CN3CCCC3)sc3c2CCC3)cc1 | -5.1 | -1.7 | 0.2 | 2.5 | 6 | 34 | -1 | -1
CCn1c(NC(=O)c2nn(C)cc2Br)nc2ccccc21 | 2.1 | -1.8 | 1.0 | -7.8 | 1 | 3 | 5 | -10
COc1ccc(C(=O)N/C(=C/c2ccc(Cl)cc2)C(=O)Nc2ccc(C(=O)O)cc2)cc1 | 4.3 | 5.2 | -0.6 | -9.2 | -23 | -20 | -4 | 5
O=C(Cc1ccccc1)Nc1cc([N+](=O)[O-])ccc1N1CCOCC1 | 6.6 | 0.5 | -0.5 | 1.5 | 15 | 3 | -2 | -3
CC(=O)N1CCN(C(=O)c2cc(-c3cccc4ccccc34)nc3ccccc23)CC1 | -27 | -1.1 | -0.2 | -3.3 | 3 | -1 | 21 | 8
COC(=O)c1ccc(-c2ccc(CNCC(O)c3ccccc3)o2)cc1 (stereo not given) | -23 | -6.0 | 0.0 | 4.1 | -15 | 41 | -1 | -6
CCN(C(=O)CSc1nnc(-c2ccncc2)o1)c1ccccc1 | 1.1 | 2.1 | -0.2 | -1.9 | -2 | -7 | · | 7
CCN(CC(=O)Nc1ccccc1OC)C(=O)CC1CCCC1 | 4.9 | · | -0.4 | 2.6 | · | · | -12 | -10
COc1ccc(N2CCC(CNC(=S)Nc3cccc(OC)c3)C2)cc1 (stereo not given) | 2.0 | 0.9 | -1.0 | 6.5 | 15 | 1 | · | ·
Cc1ccc(S(=O)(=O)N2CCOCC2)cc1NC(=O)CNCc1ccc(Cl)cc1Cl | -2.7 | · | -0.7 | -3.2 | · | · | 4 | 2
COc1nccnc1NS(=O)(=O)c1ccc(NC(=O)c2ccc(F)cc2)cc1 | 3.9 | 0.5 | -0.5 | 5.8 | -4 | -5 | · | 4
Cn1cccc1C(=O)NC(=O)COC(=O)c1ccc(O)cc1 | 2.7 | 1.2 | -0.7 | -4.3 | -3 | -1 | -4 | 8
CCOC(=O)COc1ccc(Oc2nc(C)cc(OC)n2)nn1 | 6.9 | 3.9 | -0.1 | -5.3 | 18 | -21 | -5 | 0
CCNC(=O)CN(c1ccc(OC)c(OC)c1)S(=O)(=O)c1ccccc1 | 0.8 | -0.2 | 0.0 | -5.9 | -4 | -8 | -2 | 2
Cc1ccccc1NC(=O)CN1C(=O)N/C(=C\c2ccc(N3CCOCC3)c(F)c2)C1=O | · | 2.2 | 0.4 | -3.3 | -28 | -7 | 3 | -3
Cc1ccc(NC(=O)c2sc3nc(N4CCOCC4)c4c(c3c2N)CC(C)(C)OC4)cc1 | · | 2.9 | -1.5 | 4.0 | -6 | 3 | 3 | 10
